# CDC25B-CDK2 inh: human CDC25B-CDK2/CyclinA binding inhibition. HTRF CDC25B-CDK2/CyclinA binding, anti-His/anti-Flag; stronger effect = higher value. z-score (test concentration not listed). 94,000 tested, 0.72% active;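 further: score is relative to mean and SD of negative controls; strong numbers were not always called active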
# TAR Tat displ: HIV-1 TAR-Tat binding disruption; HIV-1 TAR RNA, Tat peptide displacement FRET; stronger effect = higher value; z-score (no concentration beside the values); 100,000 tested, 0.6% active; AID 1259389;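 further: score is relative to mean and SD of negative controls; some compounds called inactive have numbers as strong as hits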
# Starred values were filed as active, the others as inactive; / = no result given.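 How the source made its calls: active means z-score from 3 up in half or more of its runs; inactive means the rest.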
1. Cn1c(C(=O)N2CCC(C(=O)NCCc3c[nH]c4ccccc34)CC2)cc2sccc21
2. Cc1cc2nc(-c3ccncc3)cc(C(F)(F)F)n2n1
3. Cc1nc(-c2ccc(S(=O)(=O)Nc3ccc4c(c3)OCO4)cc2)co1
4. Cn1c(NC(=O)CC(C)(C)C)cc(=O)n(C)c1=O
5. O=S(=O)(Nc1ncccn1)c1ccc(C(F)(F)F)cc1Cl

Screen / compound no. | 1 | 2 | 3 | 4 | 5
CDC25B-CDK2 inh | -0.78 | -1.3 | / | / | -0.94
TAR Tat displ | 0.41 | -0.6 | -1.4 | 1.2 | /

6. Cc1noc2ncnc(NCCN3CCCC3)c12
7. NC(=O)c1c(NC(=O)Cc2ccc(F)cc2)sc2c1CCC2
8. O=c1[nH]c2nc3ccccc3n2c(O)c1Cc1ccccc1
9. CC(C(=O)N1CCOCC1)n1ccc2cc(S(=O)(=O)N3CCCC3)ccc21 (stereo not drawn)
10. CCc1ccc(-c2[nH]nc3nc(-c4ccccc4)cc(C(=O)O)c23)cc1

Screen / compound no. | 6 | 7 | 8 | 9 | 10
CDC25B-CDK2 inh | / | / | -2.2 | / | /
TAR Tat displ | -0.32 | 1.5 | -1.8 | 0.23 | 1.1

11. O=C(O)c1ccc2c(c1)[C@@H]1C=CC[C@@H]1[C@H](c1ccccn1)N2
12. CCOC(=O)c1c(C)oc2nc(C)nc(NCCN(C)C3CCCCC3)c12
13. CN(C1CCCCC1)S(=O)(=O)c1ccc2c(c1)NC(=O)CC(=O)N2
14. O=C(NCc1ccncc1)C(=O)NCC(c1cccs1)S(=O)(=O)c1cccs1 (stereo not drawn)
15. Brc1cccc(-c2nc3ccccc3[nH]2)c1

Screen / compound no. | 11 | 12 | 13 | 14 | 15
CDC25B-CDK2 inh | 6* | / | / | / | -0.36
TAR Tat displ | / | -3.5 | 0.64 | 1.1 | 1.1

16. CC1CCN(CC(O)Cn2ccc3ccccc32)CC1 (stereo not drawn)
17. CCOC(=O)Cn1c(=O)oc2cc(S(=O)(=O)N3CCC(C)CC3)ccc21
18. CCCCCSc1nnc(-c2cc(Br)ccc2N)c(=O)[nH]1
19. CCOC(=O)N1CCC(n2c(SCc3cc(=O)n4ccccc4n3)nc3ccccc3c2=O)CC1
20. CC(C)N(C(=O)Cn1cc(SCC(=O)Nc2ccc3c(c2)OCCO3)c2ccccc21)C(C)C

Screen / compound no. | 16 | 17 | 18 | 19 | 20
CDC25B-CDK2 inh | -0.29 | / | -1.4 | / | /
TAR Tat displ | 1.6 | 0.29 | 0.02 | 0.31 | 0.05

21. O=C(CCc1nnc2ccc(N3CCOCC3)nn12)N1CCN(c2ccc(F)cc2)CC1
22. Cc1cc(C(=O)Nc2sc3c(c2C(N)=O)CCc2ccccc2-3)no1
23. Cc1nn(-c2ccc(N3CCCC3)nn2)c(C)c1CCC(=O)NCCC1=CCCCC1
24. Cc1nc2c(c(C)nn2C)c(C)c1CCC(=O)O
25. Cn1c(=O)[nH]c(=O)c2c1nc1n(CCO)c(-c3ccccc3)cn21

Screen / compound no. | 21 | 22 | 23 | 24 | 25
CDC25B-CDK2 inh | / | / | / | -0.83 | 1.2
TAR Tat displ | 0.9 | 0.14 | 0.36 | 0.89 | 1

26. N/C(=N\S(=O)(=O)c1ccc([N+](=O)[O-])cc1)Nc1nc2ccccc2o1
27. O=C1CCc2cc(S(=O)(=O)Nc3ccc4c(c3)OCCO4)cc3c2N1CCC3
28. Cc1sc(-c2c(C#N)c(N)nc3c2CCCCC3)cc1[N+](=O)[O-]
29. CCOc1cccc(C2Nc3c(C)cc(C)cc3-c3cc(C)nn32)c1O (stereo not drawn)
30. O=C(Cc1noc2ccccc12)NC1CCCc2ccccc21 (stereo not drawn)

Screen / compound no. | 26 | 27 | 28 | 29 | 30
CDC25B-CDK2 inh | -2.7 | / | -0.67 | -0.78 | -0.79
TAR Tat displ | / | 1.4 | -1.1 | 2.2 | 1.8

31. CN(CC(=O)NC1CCCCCC1)S(=O)(=O)c1ccc2c(c1)n(C)c(=O)c(=O)n2C
32. Fc1ccccc1Nc1nc(N2CCOCC2)c2ccccc2n1
33. COc1cc(OC)c(OC)cc1CN1CCN(C2CCCC(C)C2)CC1 (stereo not drawn)
34. CSc1nnc(-c2cccs2)o1
35. Cc1ccc(C)c(CN2N=NC3C(=O)N(c4ccc(Cl)cc4)C(=O)C32)c1 (stereo not drawn)

Screen / compound no. | 31 | 32 | 33 | 34 | 35
CDC25B-CDK2 inh | -1.4 | -0.32 | -1.8 | -1.5 | -0.36
TAR Tat displ | / | / | / | / | 1

36. OCCSc1ccc(Cl)cn1
37. N#Cc1nc(/C=C/c2ccccc2)oc1N1CCN(C(=O)c2ccccc2F)CC1
38. COc1ccccc1OCCSc1nc(-c2ccccc2Cl)nc2cc(=O)[nH]n12
39. c1ccc(OCc2nnc3sc(-c4ccc5c(c4)OCO5)nn23)cc1
40. Cc1ccc2c(c1)C(O)(CC(=O)c1ccccc1Cl)C(=O)N2 (stereo not drawn)

Screen / compound no. | 36 | 37 | 38 | 39 | 40
CDC25B-CDK2 inh | -2.2 | -0.82 | / | -0.43 | /
TAR Tat displ | / | 1.1 | -0.22 | -0.5 | 2.5

41. Cc1ccc(C2CC(C(F)(F)F)n3ncc(C(=O)N(C)Cc4cn(C)nc4C)c3N2)cc1 (stereo not drawn)
42. O=C(CN1N=NC2C(=O)N(c3ccc(F)cc3F)C(=O)C21)Nc1ccccc1 (stereo not drawn)
43. Cc1c(CNCc2ccc3c(c2)OCO3)c(C(=O)O)c(C)n1Cc1ccc(Cl)cc1
44. COc1ccc(OC)c(NC(=O)N2CCC3(CC2)Nc2ccccc2-n2cccc23)c1
45. Cn1c(COc2ccccc2)nnc1SCc1cc(=O)c2cccc(Cl)c2[nH]1

Screen / compound no. | 41 | 42 | 43 | 44 | 45
CDC25B-CDK2 inh | 0.28 | -0.86 | -3.4 | / | /
TAR Tat displ | 0.14 | 0.72 | -1.3 | 0.12 | 1.2

46. O=C(CSc1nccn1C1CCCCC1)Nc1ccc(F)cc1F
47. CCSc1ncc(Cl)c(C(=O)Nc2sc3c(c2C(=O)OC)CCC3)n1
48. O=[N+]([O-])c1cc2c(c(COc3ccc(Cl)cc3Cl)c1)OCOC2
49. O=C1C2Sc3[nH]c(=O)sc3C(c3ccc(O)cc3)C2C(=O)N1c1ccc(Br)cc1 (stereo not drawn)
50. O=C(c1ccccc1)c1n[nH]c(-c2ccc(Br)cc2)cc1=O

Screen / compound no. | 46 | 47 | 48 | 49 | 50
CDC25B-CDK2 inh | / | -0.76 | -2.2 | 0.93 | -1.1
TAR Tat displ | 1.5 | 0.84 | / | 1 | /

51. O=C(NCc1ccccc1)NCc1cccn1Cc1cccc(F)c1
52. O=C(Nc1ccc(F)cc1F)c1cnn(-c2ccc(F)cc2)c1-n1cccc1
53. O=C(Nc1ccccc1C(=O)O)c1cc(S(=O)(=O)N2CCOCC2)c(Cl)cc1Cl
54. COC(=O)c1sccc1S(=O)(=O)Nc1ccccc1OC
55. COC(=O)c1ccc(OCC(F)(F)F)nc1

Screen / compound no. | 51 | 52 | 53 | 54 | 55
CDC25B-CDK2 inh | / | / | -0.93 | / | -1.6
TAR Tat displ | 0.36 | 2 | / | 1.5 | /

56. Cc1oc2ccc(NS(=O)(=O)c3ccc(Cl)cc3)cc2c1C(=O)OC(C)C
57. CN1CCN(S(=O)(=O)c2cc(F)ccc2CN2C(=O)c3cccnc3C2=O)CC1
58. O=C1COc2cc(S(=O)(=O)NCCC3=CCCCC3)c(Cl)cc2N1
59. COc1cccc(NC(=O)CCN2CCN(C/C=C/c3ccccc3)CC2)c1
60. O=C(CSc1nc2ccccc2nc1SCC(=O)N1CCOCC1)N1CCOCC1

Screen / compound no. | 56 | 57 | 58 | 59 | 60
CDC25B-CDK2 inh | -1.6 | / | / | -1 | -1.7
TAR Tat displ | 0.5 | -0.1 | -3.7 | / | 0.69

61. O=C(CSc1nnc(-c2ccccc2)o1)c1ccccc1
62. CC1CC(C)CN(C(=O)C2CCCN(C(=O)c3cc4sccc4n3C)C2)C1 (stereo not drawn)
63. Cc1ccc(-n2nc3c(c2NC(=O)c2c(-c4ccccc4Cl)noc2C)CS(=O)(=O)C3)cc1
64. FC(F)n1c(=S)n(C(F)F)c2ccccc21
65. Cc1c(-c2nc(-c3ccccc3Cl)no2)nnn1-c1ccc(F)cc1

Screen / compound no. | 61 | 62 | 63 | 64 | 65
CDC25B-CDK2 inh | -1.9 | -0.27 | 0.31 | -2.4 | /
TAR Tat displ | -0.35 | 0.38 | / | / | 0.99

66. CCOC(=O)c1nnn(Cc2ccccc2)c1N
67. O=[N+]([O-])c1cc(C(F)(F)F)cc([N+](=O)[O-])c1N1CCCC(Cn2cccc2)C1 (stereo not drawn)
68. Cc1[nH]nc2oc(=O)c(Cc3c(F)cccc3Cl)c(C)c12
69. O=C(CN1C(=O)CCSc2ccc(S(=O)(=O)N3CCOCC3)cc21)NCc1ccco1
70. CCOc1ccc(-c2nc(C#N)c(NCc3ccc4c(c3)OCO4)o2)cc1

Screen / compound no. | 66 | 67 | 68 | 69 | 70
CDC25B-CDK2 inh | -2 | -1.2 | -3 | / | -1.8
TAR Tat displ | / | / | / | 1.8 | -0.51

71. COc1ccc(Nc2nc3ccccc3c3nncn23)cc1
72. Oc1c(Cl)cc(Cl)cc1C=Nc1ccccc1-c1nc2ccccc2[nH]1
73. CCc1nnc(NC(=O)c2cc3ccc4cccnc4c3[nH]2)s1
74. Cc1noc(C)c1C(=O)N1CCSCC1
75. COc1ccc(-c2cnn3c(C)cc(C)nc23)cc1OC

Screen / compound no. | 71 | 72 | 73 | 74 | 75
CDC25B-CDK2 inh | -1.3 | -2.2 | / | -0.6 | -2.1
TAR Tat displ | 1.5 | / | 0.15 | / | 0.9

# Gathered by group, those above containing an NH in an aromatic ring.
1. Cn1c(C(=O)N2CCC(C(=O)NCCc3c[nH]c4ccccc34)CC2)cc2sccc21
8. O=c1[nH]c2nc3ccccc3n2c(O)c1Cc1ccccc1
10. CCc1ccc(-c2[nH]nc3nc(-c4ccccc4)cc(C(=O)O)c23)cc1
15. Brc1cccc(-c2nc3ccccc3[nH]2)c1
18. CCCCCSc1nnc(-c2cc(Br)ccc2N)c(=O)[nH]1
25. Cn1c(=O)[nH]c(=O)c2c1nc1n(CCO)c(-c3ccccc3)cn21
38. COc1ccccc1OCCSc1nc(-c2ccccc2Cl)nc2cc(=O)[nH]n12

Screen / compound no. | 1 | 8 | 10 | 15 | 18 | 25 | 38
CDC25B-CDK2 inh | -0.78 | -2.2 | / | -0.36 | -1.4 | 1.2 | /
TAR Tat displ | 0.41 | -1.8 | 1.1 | 1.1 | 0.02 | 1 | -0.22

45. Cn1c(COc2ccccc2)nnc1SCc1cc(=O)c2cccc(Cl)c2[nH]1
49. O=C1C2Sc3[nH]c(=O)sc3C(c3ccc(O)cc3)C2C(=O)N1c1ccc(Br)cc1 (stereo not drawn)
50. O=C(c1ccccc1)c1n[nH]c(-c2ccc(Br)cc2)cc1=O
68. Cc1[nH]nc2oc(=O)c(Cc3c(F)cccc3Cl)c(C)c12
72. Oc1c(Cl)cc(Cl)cc1C=Nc1ccccc1-c1nc2ccccc2[nH]1
73. CCc1nnc(NC(=O)c2cc3ccc4cccnc4c3[nH]2)s1

Screen / compound no. | 45 | 49 | 50 | 68 | 72 | 73
CDC25B-CDK2 inh | / | 0.93 | -1.1 | -3 | -2.2 | /
TAR Tat displ | 1.2 | 1 | / | / | / | 0.15
